Source: PubChem
Yeast UUG start: modulators of yeast start codon fidelity, primary screen, whole organism, S. cerevisiae, single point, plate reader | activity score, % at 18.7 µM | S. cerevisiae UUG-firefly luciferase reporter, luminescence/redox ratio | 350,000 tested, 0.13% active;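 active means replicate mean at a twofold rise or more, about +100% in these data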;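 further: firefly luciferase made from a UUG start codon reports start codon fidelity; reporter light over untreated wells divided by growth signal over untreated wells; some hits fall short of that in this replicate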
The depositor's hits bear a star; & = joins results of further samples. Some of the compounds tested; the hit share may differ from the screen's.

SMILES	Yeast UUG start
C[C@@H]1CN([C@@H](C)CO)C(=O)Cc2cc(NC(=O)NC3CCCCC3)ccc2O[C@H]1CN(C)S(=O)(=O)c1ccccc1	-8
CN(C)CC(=O)Nc1ccc2c(c1)[C@@H]1C[C@H](CC(=O)N(C)C)O[C@H](CO)[C@@H]1O2	-10
CCC(=O)N1CCCCN2[C@@H](CO)[C@@H](c3ccc(C#CCOC)cc3)[C@@H]2C1	0
CCC(=O)NC[C@H]1[C@@H](c2ccccc2)[C@@H](CO)N1C(=O)C1CC1	1
CCC(=O)Nc1ccc2c(c1)OC[C@H](C)N(Cc1ccccc1)C[C@H](C)[C@H](OC)CN(C)C2=O	-8
O=C(Nc1ccccc1Cl)N1C[C@H]2[C@@H](c3ccccc31)[C@H](CO)N2C(=O)c1cccnc1	-17
Cc1ccc(S(=O)(=O)N2CC[C@@H]3[C@H](CO)Nc4ccc(-c5cccc(C(=O)N(C)C)c5)cc4[C@@H]32)cc1	-2
Cc1ccc(-c2ccc([C@@H]3[C@@H](CO)N4CCCCN(S(=O)(=O)c5cccc(C)c5)C[C@@H]34)cc2)cc1	-2
C[C@H](CO)N1C[C@H](C)[C@@H](CN(C)C(=O)Nc2ccccc2)Oc2ccc(NC(=O)Nc3ccc(F)cc3)cc2CC1=O	-5
C[C@H]1CN([C@@H](C)CO)C(=O)Cc2cc(N(C)C)ccc2O[C@H]1CN(C)Cc1ccc(-c2ccccc2)cc1	1

Four of these compounds in a different format:
SMILES: Cc1ccc(-c2ccc([C@@H]3[C@@H](CO)N4CCCCN(S(=O)(=O)c5cccc(C)c5)C[C@@H]34)cc2)cc1
  Yeast UUG start = -2

SMILES: C[C@@H]1CN([C@@H](C)CO)C(=O)Cc2cc(NC(=O)NC3CCCCC3)ccc2O[C@H]1CN(C)S(=O)(=O)c1ccccc1
  Yeast UUG start = -8

SMILES: CCC(=O)N1CCCCN2[C@@H](CO)[C@@H](c3ccc(C#CCOC)cc3)[C@@H]2C1
  Yeast UUG start = 0

SMILES: O=C(Nc1ccccc1Cl)N1C[C@H]2[C@@H](c3ccccc31)[C@H](CO)N2C(=O)c1cccnc1
  Yeast UUG start = -17

Next section.
SMILES	Yeast UUG start
Cc1noc(C)c1NC(=O)N(C)C[C@@H]1Oc2ccc(NC(=O)NC3CCCCC3)cc2C(=O)N([C@H](C)CO)C[C@H]1C	-22
O=C(C[C@@H]1CC[C@H]2[C@@H](COC[C@@H](O)CN2C(=O)Nc2ccc(Cl)cc2)O1)N1CCCCC1	9
O=C(C[C@@H]1CC[C@@H]2[C@H](COC[C@H](O)CN2C(=O)c2cnccn2)O1)NCc1ccccc1	-15
C[C@H](CO)N1C[C@H](C)[C@H](CN(C)C(=O)Nc2cccc3ccccc23)Oc2c(NS(=O)(=O)c3ccc(F)cc3)cccc2C1=O	-5
CC(C)NC(=O)N1[C@@H]2CN(C(=O)C3CC3)c3ccccc3[C@@H]2[C@@H]1CO	-5
O=C(NCC(F)(F)F)[C@@H]1[C@@H](CO)[C@@H]2Cn3c(cccc3=O)[C@H]1N2C(=O)C1CCC1	-7
O=C(c1cccnc1)N1C[C@@H]2[C@H](c3ccccc31)[C@@H](CO)N2CC1CCCCC1	11
C[C@H](CO)N1C[C@H](C)[C@@H](CN(C)Cc2ccc(C(=O)O)cc2)Oc2ccc(NC(=O)NC3CCCCC3)cc2C1=O	8
CCCNC(=O)N1[C@H](CNC(C)=O)[C@H](c2ccccc2)[C@@H]1CO	-3
C/C=C/c1ccc([C@H]2[C@@H](CNS(C)(=O)=O)N(CC3CCCC3)[C@H]2CO)cc1	2
O=C(c1cccnc1)N1C[C@@H]2[C@H](c3ccccc31)[C@H](CO)N2C(=O)C1CC1	115*
C[C@@H]1CN([C@H](C)CO)C(=O)Cc2cc(NC(=O)Cc3cn(C)c4ccccc34)ccc2O[C@@H]1CN(C)C	-6
COc1cccc(S(=O)(=O)N2CC[C@H]3[C@@H](CO)N(C)c4ccc(C5=CCCCC5)cc4[C@H]32)c1	-15
COc1ccc(S(=O)(=O)Nc2cccc3c2O[C@H](CN(C)C(=O)Nc2c(C)noc2C)[C@H](C)CN([C@H](C)CO)C3=O)cc1	6
Cn1cnc(CCNC(=O)C[C@H]2CC[C@@H]3[C@H](COC[C@H](O)CN3C(=O)Nc3ccc(Cl)cc3)O2)c1	-3
C[C@@H]1CN([C@H](C)CO)C(=O)c2cccc(NC(=O)NC3CCCCC3)c2O[C@H]1CN(C)C	-6
COc1ccc(NC(=O)Nc2ccc3c(c2)CC(=O)N([C@@H](C)CO)C[C@H](C)[C@@H](CN(C)C)O3)cc1	12
COC(=O)[C@H]1[C@H](CO)[C@H]2Cn3c(ccc(C4=CCCC4)c3=O)[C@H]2N1C(=O)C1CCCC1	-7
C[C@H]1CN([C@@H](C)CO)C(=O)c2cc(NC(=O)Cc3cn(C)c4ccccc34)ccc2O[C@H]1CN(C)Cc1ccc2c(c1)OCO2	6
C/C=C/c1ccc([C@@H]2[C@@H](CO)N3CCCCN(C(=O)Nc4ccccc4F)C[C@H]23)cc1	7
Cc1ccc(S(=O)(=O)N(C)C[C@@H]2Oc3ccc(N(C)C)cc3C(=O)N([C@@H](C)CO)C[C@@H]2C)cc1	11
C[C@H](CO)N1C[C@H](C)[C@H](CN(C)C(=O)NC2CCCCC2)Oc2ccc(NS(=O)(=O)c3ccc(Cl)cc3)cc2CC1=O	6
CS(=O)(=O)N1CCCCN2[C@H](C1)[C@@H](c1ccc(Br)cc1)[C@@H]2CO	10
CN1C[C@H]2[C@@H](c3ccccc31)[C@H](CO)N2C(=O)C1CCOCC1	-8
O=C(c1ccccc1)N1CC[C@@H]2[C@@H](CO)Nc3ccc(C#Cc4ccccc4F)cc3[C@@H]21	-26
C[C@H]1CN([C@@H](C)CO)C(=O)c2cc(NC(=O)Cc3cn(C)c4ccccc34)ccc2O[C@H]1CN(C)C	14
Cc1cccc(S(=O)(=O)N2CCCCN3[C@H](C2)[C@H](c2ccc(C#C[C@H](C)O)cc2)[C@@H]3CO)c1	0
Cc1ccc(S(=O)(=O)N(C)C[C@@H]2Oc3ccc(NC(=O)Nc4ccccc4)cc3CC(=O)N([C@@H](C)CO)C[C@@H]2C)cc1	-4
Cc1cccc(S(=O)(=O)N2CCCCN3[C@H](CO)[C@H](c4ccc(C#C[C@H](C)O)cc4)[C@@H]3C2)c1	13
N#Cc1cccc(-c2ccc3c(c2)[C@@H]2[C@@H](CCN2S(=O)(=O)c2ccc(F)cc2)[C@@H](CO)N3)c1	-15

A second format for part of the listing above.
| SMILES | Yeast UUG start |
| --- | --- |
| C[C@@H]1CN([C@H](C)CO)C(=O)Cc2cc(NC(=O)Cc3cn(C)c4ccccc34)ccc2O[C@@H]1CN(C)C | -6 |
| COc1cccc(S(=O)(=O)N2CC[C@H]3[C@@H](CO)N(C)c4ccc(C5=CCCCC5)cc4[C@H]32)c1 | -15 |

Carrying on:
SMILES	Yeast UUG start
CCS(=O)(=O)N1CCCCN2[C@H](CO)[C@H](c3ccc(-c4ccc(C#N)cc4)cc3)[C@H]2C1	2
O=S(=O)(c1ccccc1)N1CCCCN2[C@H](C1)[C@@H](c1ccc(-c3cncnc3)cc1)[C@@H]2CO	18
C[C@@H]1CN([C@H](C)CO)C(=O)c2cc(NS(=O)(=O)c3cccs3)ccc2O[C@H]1CN(C)Cc1ccc(Oc2ccccc2)cc1	6
O=S(=O)(c1ccccc1F)N1CC[C@@H]2[C@H](CO)Nc3ccc(-c4ccccc4F)cc3[C@@H]21	-1
CNC[C@@H]1Oc2ccc(NS(=O)(=O)c3ccc(F)cc3)cc2CC(=O)N([C@H](C)CO)C[C@H]1C	6
COc1ccc(C(=O)N2C[C@@H]3[C@H](c4ccccc42)[C@@H](CO)N3C(=O)c2ccc(F)cc2)cc1	17
Cc1ccc(S(=O)(=O)N(C)C[C@H]2Oc3ccc(NC(=O)NC(C)C)cc3CC(=O)N([C@@H](C)CO)C[C@H]2C)cc1	12
CCCC(O)C#Cc1cnc2c(c1)C(=O)N([C@H](C)CO)C[C@H](C)[C@H](CN(C)S(=O)(=O)c1cccs1)O2 (stereo not given in full)	21&17
Cc1cccc(-c2ccc([C@H]3[C@H]4CN(S(=O)(=O)c5cccc(C)c5)CCCCN4[C@H]3CO)cc2)c1	-12
COc1ccc(S(=O)(=O)N(C)C[C@@H]2Oc3ccc(NC(=O)CCN4CCOCC4)cc3C(=O)N([C@H](C)CO)C[C@H]2C)cc1	5
C[C@H]1CN([C@@H](C)CO)C(=O)c2cc(NS(=O)(=O)c3ccc(F)cc3)ccc2O[C@H]1CN(C)Cc1ccncc1	3
CO[C@H]1CN(C)C(=O)c2ccc(NC(C)=O)cc2OC[C@@H](C)N(CCc2ccccc2)C[C@H]1C	-10
O=C(C[C@@H]1CC[C@H]2[C@@H](COC[C@H](O)CN2C(=O)c2cnccn2)O1)NCc1ccccc1	-9
C[C@@H]1CN([C@H](C)CO)C(=O)c2cccc(NC(=O)C3CCOCC3)c2O[C@@H]1CN(C)S(=O)(=O)c1ccccc1	6
CO[C@@H]1CN(C)C(=O)c2cc(NC(=O)Nc3c(C)noc3C)ccc2OC[C@@H](C)N(CC2CC2)C[C@H]1C	-4
COCC(=O)N1CCCCN2[C@H](C1)[C@H](c1ccc(-c3ccc(C)cc3)cc1)[C@@H]2CO	1
CCS(=O)(=O)Nc1ccc2c(c1)C(=O)N(C)[C@H]1CC[C@H](CC(=O)NCCCN3CCOCC3)O[C@H]1CO2	-17
C[C@@H]1CN([C@@H](C)CO)C(=O)c2cc(NC(=O)Cn3cnnn3)ccc2O[C@@H]1CN(C)Cc1ccc(C(=O)O)cc1	14
Cc1ccccc1S(=O)(=O)N1CCCCN2[C@H](C1)[C@@H](c1ccc(-c3cccc(F)c3)cc1)[C@@H]2CO	-2
CCN(C[C@H]1N[C@H](CO)[C@@H]1c1ccc(-c2cccc(C#N)c2)cc1)C(C)=O	14
CN(C)C(=O)C[C@@H]1CC[C@@H]2[C@H](COC[C@@H](O)CN2C(=O)C2CCOCC2)O1	6
COCC(=O)N1C[C@@H](C)[C@@H](OC)CN(C)C(=O)c2cc(NC(=O)c3ccc(F)cc3)ccc2OC[C@@H]1C	22
CNC[C@H]1Oc2ccc(NC(=O)Nc3ccc(F)cc3)cc2CC(=O)N([C@H](C)CO)C[C@H]1C	7
O=S(=O)(c1ccccc1F)N1CCCCN2[C@H](CO)[C@H](c3ccc(-c4cncnc4)cc3)[C@H]2C1	-9
CCCN1C[C@@H](C)[C@H](OC)CN(C)C(=O)c2cc(NC(=O)NC3CCCCC3)ccc2OC[C@H]1C	29
CN(C)CC#Cc1ccc([C@H]2[C@H](CO)N3CCCCN(CC4CC4)C[C@@H]23)cc1	18
O=C(c1ccccn1)N1C[C@H]2[C@@H](c3ccccc31)[C@@H](CO)N2C(=O)c1ccccn1	-14
COCC(=O)Nc1ccc2c(c1)C(=O)N(C)C[C@H](OC)[C@@H](C)CN(Cc1ccccc1F)[C@@H](C)CO2	-6
COc1ccc(CN(C)C[C@@H]2Oc3ccc(NS(=O)(=O)c4ccccc4)cc3C(=O)N([C@@H](C)CO)C[C@@H]2C)cc1	38
COc1ccc(CN(C)C[C@@H]2Oc3c(NC(=O)Nc4c(C)noc4C)cccc3C(=O)N([C@H](C)CO)C[C@@H]2C)cc1	-9
CNC(=O)C[C@@H]1CC[C@@H]2[C@H](COC[C@H](O)CN2C(=O)c2ccccn2)O1	-14
COc1cccc(S(=O)(=O)N2CCCCN3[C@H](CO)[C@@H](c4ccc(C#CCC(C)C)cc4)[C@@H]3C2)c1	17
O=C(Cc1ccccc1)N1C[C@H]2[C@@H](c3ccccc31)[C@@H](CO)N2C(=O)Cc1ccccc1	22
COc1ccc(CN(C)C[C@@H]2Oc3ccc(NS(=O)(=O)c4ccc(F)cc4)cc3C(=O)N([C@H](C)CO)C[C@@H]2C)cc1	-12
C[C@@H]1CN([C@H](C)CO)C(=O)Cc2cc(NC(=O)Cc3ccccc3)ccc2O[C@H]1CN(C)C	-10
C[C@H]1CN([C@@H](C)CO)C(=O)c2cc(NC(=O)Nc3cccc4ccccc34)ccc2O[C@@H]1CN(C)C(=O)Nc1ccccc1	4
C[C@H](CO)N1C[C@H](C)[C@H](CN(C)Cc2cccc(C(F)(F)F)c2)Oc2ncc(/C=C/c3ccccc3)cc2C1=O	2
O=C(CN1CCOCC1)N1CCCCN2[C@H](CO)[C@H](c3ccc(Br)cc3)[C@@H]2C1	-11
CO[C@@H]1CN(C)C(=O)c2ccc(NS(=O)(=O)CC(F)(F)F)cc2OC[C@@H](C)N(Cc2nccs2)C[C@@H]1C	14
Cc1ccc(-c2cnc3c(c2)C(=O)N([C@H](C)CO)C[C@@H](C)[C@H](CN(C)CC2CCCCC2)O3)cc1	15
COc1ccc(S(=O)(=O)N(C)C[C@H]2Oc3c(NC(=O)c4ccncc4)cccc3C(=O)N([C@@H](C)CO)C[C@H]2C)cc1	-8
COc1ccc(NC(=O)N2CCCCN3[C@H](CO)[C@H](c4ccc(C#CCC(C)C)cc4)[C@H]3C2)cc1	12
CN(C[C@@H]1[C@H](c2ccccc2)[C@H](CO)N1C(=O)C1CC1)C(=O)c1ccccn1	26
COCC(=O)Nc1ccc2c(c1)OC[C@@H](C)N(C(=O)Cc1cccnc1)C[C@@H](C)[C@@H](OC)CN(C)C2=O	10
CC(=O)N1CC[C@@H]2[C@H]1c1cc(-c3ccccc3)ccc1N[C@@H]2CO	-16
CO[C@@H]1CN(C)C(=O)c2cc(NC(=O)C3CC3)ccc2OC[C@@H](C)N(Cc2nccs2)C[C@H]1C	-5
O=C(Nc1ccccc1F)N1CCCCN2[C@H](CO)[C@@H](c3ccc(C#Cc4cccnc4)cc3)[C@@H]2C1	5
C[C@@H]1CN([C@@H](C)CO)C(=O)Cc2cc(NS(=O)(=O)c3ccccc3)ccc2O[C@@H]1CN(C)C(=O)NC1CCCCC1	0
